AmpC nodet inh: blocks E. coli AmpC beta-lactamase in absence of detergent. Potency, µM (doses to about 28.7 µM), inactives show at the highest dose activity change, negative = inhibition. 1.8% of 71,000 active. AmpC nitrocefin hydrolysis, absorbance 480 nm, no detergent; potencies from a single point are estimates. P00811; active = falling curve, for most hits resting on a single point; inconclusive = weak or doubtful change; inactive = flat or rising curve; further: % of control where 0% means no effect; about half of the hits show no inhibition at the top dose; a quarter of the inactives give rising signals
Target sequence (P00811 whole entry, looked up): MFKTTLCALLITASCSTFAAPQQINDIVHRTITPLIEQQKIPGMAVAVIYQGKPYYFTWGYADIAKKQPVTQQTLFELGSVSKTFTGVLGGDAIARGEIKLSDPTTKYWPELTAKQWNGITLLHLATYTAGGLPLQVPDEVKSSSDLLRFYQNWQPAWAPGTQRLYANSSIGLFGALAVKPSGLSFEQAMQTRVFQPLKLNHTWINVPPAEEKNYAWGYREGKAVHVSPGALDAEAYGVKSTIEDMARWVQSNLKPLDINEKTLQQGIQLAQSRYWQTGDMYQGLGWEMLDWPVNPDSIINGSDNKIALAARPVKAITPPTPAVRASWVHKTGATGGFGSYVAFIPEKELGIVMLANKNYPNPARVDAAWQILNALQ
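AmpC in 20 mM phosphate buffer pH 7.0 was preincubated 15 min at room temperature with compounds. Nitrocefin (800 uM stock) was then added and hydrolysis followed at 480 nm every 20 s for 4 min.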
Numbers without * were called inactive; & = joins results of further samples; [ ] = dose if it differs, or a comment. Potency means the concentration at half of the fitted maximal effect. Some of the compounds tested; count on the stated rates, not on these rows.

SMILES	AmpC nodet inh
NC(=O)C(F)(F)C12OC3C4C5CC(C6C5C3C61)C42 (stereo not drawn)	-4%
CCN1CC=C2C(C#N)=C(N)C(C#N)(C#N)C(c3cc(Cl)ccc3Cl)C2C1 (stereo not drawn)	26%
COc1cc2c(cc1O)CC[C@@H]1[C@@H]2CC[C@@]2(C)[C@H](O)CC[C@H]12	13%
CCCCC(=O)Nc1ccc(F)c(Cl)c1	0%
CC(=O)N[C@@H](Cc1c[nH]c2ccccc12)C(=O)OCc1cc(C(F)(F)F)cc(C(F)(F)F)c1	146%&122%
CCCOc1ccc(NC(=O)c2c(-c3ccccc3)noc2C)cc1	-6%
CSc1ccccc1NC(=O)Cn1c(-c2cscn2)nc2ccccc21	19%
CCC(C)NC(=O)CSc1nc2n[nH]c(C)c2c(=N)n1-c1ccc(OC)cc1 (stereo not drawn)	4%
CC(=O)c1ccc(NC(=O)C2CCN(S(=O)(=O)c3cccc4cccnc34)CC2)cc1	35%
CC(C)Oc1cccc(-c2cc(C(=O)N3CCN(S(C)(=O)=O)CC3)c3ccccc3n2)c1	133%
CCN(CC)CCCN1C(=O)CSC1c1ccc2c(c1)OCO2 (stereo not drawn)	6%
Cc1cccc(C)c1	-5%
O=C(C1CC1)N1CCc2cc(Br)cc(S(=O)(=O)NCc3ccccn3)c21	5%
O=S(=O)(c1ccccc1)N1CCN(CC(O)COc2ccc3c(c2)CCC3)CC1 (stereo not drawn)	84%
O=S(=O)(c1ccc(C2CCCCC2)cc1)N1CCN(c2ncccn2)CC1	7%
CC1(C)O[C@H]2[C@@H](c3[nH]nc4c(=O)[nH]c(=O)[nH]c34)OC[C@H]2O1	-4%[5.75 µM]
COc1ccc(C)cc1-n1nnnc1SCc1csc(C)n1	20%
COC(=O)CSc1cc(C)nc(NC(C)=O)n1	-4%
Cc1nnc(N2CCN(c3ccccc3)CC2)[nH]c1=O	0%
O=C(Nc1ccc2c(c1)OCCO2)C1CCCN(S(=O)(=O)c2cnc[nH]2)C1 (stereo not drawn)	-11%
CCN(CC)S(=O)(=O)c1ccc(-c2nnc(SCc3nnc(-c4ccc(C)cc4)o3)o2)cc1	36%
O=c1[nH]c2ccccc2nc1NCCN1CCOCC1	-9%
Cc1cc(-c2nc3c4c5c(sc4[nH]c(=O)n3n2)CCC5)c(C)o1	44%
CCCN1CCC[C@H](c2cccc(C#N)c2)C1	-10%
C=CCn1c(SCC(=O)N2CC(=O)Nc3ccccc32)nc2scc(-c3cccs3)c2c1=O	-1%
O=C(Nc1ccc(C2CCCCC2)cc1)C1CCN(c2ncccn2)CC1	-2%
Cc1nc2c(sc3nc4c(cc32)COC(C)(C)C4)c(=O)n1CC(=O)NCc1ccco1	-1%
COc1ccc(C(=O)N2CCN(C3CCCCC3)CC2)c(OC)c1	10%
Cn1c(=NC(=O)CSCC(=O)N2CCCCC2)sc2ccccc21	42%
COc1cc(/C=N/n2cnnc2)ccc1OCCOc1ccccc1	66%
Cn1nc(C(=O)NC2CCCCCC2)ccc1=O	13%
Cc1ccccc1-c1nc(CS(=O)CC(=O)NCc2ccccc2)c(C)o1 (stereo not drawn)	4µM*[single pt active]
Cc1ccc2nc(NC(=O)C3CCN(S(=O)(=O)c4cccs4)CC3)sc2c1	-23%
CCN(CC)C(C(=O)Nc1ccc2c(c1)OCO2)c1ccccc1 (stereo not drawn)	1%
CC(=O)N1CC=CC1(C)C(=O)NCc1cc(F)cc(C(F)(F)F)c1 (stereo not drawn)	12%
CC(C)[C@@H](CC(=O)N[C@@H]1CCNC[C@H]1C(=O)N[C@H](CC(=O)N[C@@H](CCC(=O)O)CC(=O)O)Cc1c[nH]c2ccccc12)NC(=O)C[C@H](CO)NC(=O)[C@@H]1CNCC[C@H]1N	15%
Cc1oc(-c2ccc(Cl)cc2)cc1-c1nn2c(-c3ccoc3C)nnc2s1	50%
O=C(CSc1nnnn1Cc1ccccc1)Nc1ccc2c(c1)OCO2	-16%
CC(C)CON=O	-10%
CCCn1cc(NC(=O)C2CC(c3cccc(Br)c3)=NO2)cn1 (stereo not drawn)	53%
CCCC(=O)NC1=C(C#N)C2(CCCC2)Cc2ccccc21	-3%
Cc1n[nH]c(=O)nc1NCc1ccc(Cl)cc1	-14%
COc1ccc2oc(=O)c(C(=O)O)cc2c1	-7%
O=C(Cn1nc(-c2ccccc2)ccc1=O)NCCN1CCN(Cc2ccccc2)CC1	0%
Cc1c(C(=O)NCc2ccc3c(c2)OCO3)sc2nc(-c3ccc(F)cc3)cn12	0%
Cn1c(-c2ccc(CN3CCCCC3)o2)nc2ccccc21	6%
CS(=O)(=O)N1CCN(c2ccccc2NC(=O)c2cccnc2)CC1	9%
CCOC(=O)Cc1csc(NC(=O)c2csc3c2CCCC3)n1	-2%
CCOc1cccc(C(=O)Nc2ccccc2N2CCN(C(=O)C(C)C)CC2)c1	86%
CCC/C=C(\CCC)C(NS(=O)(=O)CC12CCC(CC1=O)C2(C)C)c1ccc(C(=O)OC)cc1 (stereo not drawn)	16%
CN(C)Cc1nc2c(c(=O)[nH]1)C1(CCCCC1)Cc1ccccc1-2	81%
NC(=O)COc1ccc2c3c(c(=O)oc2c1)CCCCC3	22%
CN(C)/C=N/c1cnc(C(=O)c2ccc(Cl)cc2)n1C	14%
Cc1cnc(CNc2ncnc3ccc(-c4ccccc4C(F)(F)F)cc23)cn1	146%
C=CCn1c(O)c(C(CC)=NCc2cccnc2)c(=O)[nH]c1=O	-6%
O=c1cc(NCc2ccco2)c2ccccc2o1	-23%
CC1=NS(=O)(=O)c2cc(Cl)ccc2N1	19%
O=C(NCc1ccccc1)c1ccc(COCC(F)(F)F)o1	5%
Cc1noc(C)c1C(=O)N1CCN(C(=O)c2sc3cc(Cl)ccc3c2Cl)CC1	104%
CCOC(=O)c1ccccc1NC(=O)Cn1cnc2c(oc3ccccc32)c1=O	20%

The listing continues.
SMILES	AmpC nodet inh
COC(=O)c1ccc(C(NC(=O)OCc2ccccc2)/C(C)=C/[C@@H](C)C(=O)NC2CCCCC2)cc1 (stereo partly drawn)	52%
O=C(Cn1c(=O)c(C(F)(F)F)nc2ccccc21)N1CCC2(CC1)OCCO2	4%
CNC(=O)c1nnn(Cc2ccccc2)c1NC(=O)C(F)(F)F	-6%
Cn1c(SCC(=O)Nc2ccc(N3CCOCC3)c(Cl)c2)nnc1C(O)c1ccccc1 (stereo not drawn)	45%
CC(Oc1ccc(Cl)cc1Cl)C(=O)N(Cc1ccco1)C1CCS(=O)(=O)C1 (stereo not drawn)	88%
COc1ccccc1C(=O)NC(C)C(c1cccs1)N1CCN(C)CC1 (stereo not drawn)	11%
Cn1c(=O)[nH]c(=O)c2c1nc(N1CCCCC1)n2CCCSc1nc2ccccc2s1	90%
Cc1ccc(Cn2nnnc2CN2CCC(O)(c3ccccc3F)CC2)cc1	130%
Cc1c(NC(=O)CCC(=O)N2CCCCC2)c(=O)n(-c2ccccc2)n1C	-2%
CSc1nc2ccccc2n1CC(=O)N1CCCCC1	-4%
Cc1sc2nc(SCC(=O)OC(C)C)n(C)c(=O)c2c1C	42%
O=C(OCCN1C(=O)c2ccccc2C1=O)c1cnccn1	-3%
Nc1c(S(N)(=O)=O)cc(S(N)(=O)=O)cc1S(N)(=O)=O	-6%[5.75 µM]
C=Cn1c(C(=O)O)cc(CC)c1-c1ccccc1	-4%
Cc1cccc(NC(=O)CSc2nnc([C@@H]3CCCN3C(=O)OC(C)(C)C)o2)c1C	48%
CCOC(=O)N1CCN(C(=O)c2ccc(CN(c3ccc(C)c(C)c3)S(C)(=O)=O)cc2)CC1	116%
O=C(NCCc1ccc(Cl)cc1)C1CCN(S(=O)(=O)N2CCC3(CC2)OCCO3)CC1	32%
CCOC(=O)c1oc2cc(OCC(N)=O)ccc2c(=O)c1-c1ccc(OC)c(OC)c1	28%
COc1ccccc1CCNS(=O)(=O)c1c(C)n(C)c(=O)n(C)c1=O	6%
CC(=O)Nc1nonc1NC(=O)CSc1nc2ccccc2o1	-11%
Cc1c(N=c2c(=O)c3ccccc3c2=O)c(=O)n(-c2ccccc2)n1C	5%
CCOC(=O)c1[nH]c(C)c(C(=O)NCC2CCCO2)c1C (stereo not drawn)	-5%
O=C1c2cccc3cccc(c23)C(=O)N1c1nncs1	-8%
CCC(CC)n1[nH]c(=O)c2c(C)cc(C)nc21	-3%
CCCn1c(=O)c2ccccc2n2c(SCCOc3ccc(C)cc3)nnc12	50%
COc1ccc(C(=O)N2CCC(C(=O)Nc3ccccc3OC)CC2)cc1	26%
COc1ccc(-c2cc(C(=O)Nc3cc(C)n(Cc4ccc(Cl)cc4)n3)no2)cc1OC	48%
CCC1CCCCN1S(=O)(=O)c1ccc(C(=O)Nc2nnc(-c3cccs3)o2)cc1 (stereo not drawn)	13µM*
CCOc1ccc(OCc2cccc(C(=O)N3CCOCC3)c2)cc1	54%
COC(=O)C1=C(C)N(c2ccc(S(N)(=O)=O)cc2)C(=O)C1	11%
Cn1c(/C(C#N)=C(\O)c2ccc(S(=O)(=O)N3CCCCC3)cc2)nc2ccccc21	27%
COc1ccc(CN2C(=O)CCC2(C)C(=O)NC2CCCC2)c(OC)c1 (stereo not drawn)	9%
N[C@@](CC(=O)O)(Cc1ccccc1)C(=O)O	-5%[5.75 µM]
CN1CCc2c(sc3c2c(=O)n(-c2ccccc2)c2nnc(SCc4ccccc4F)n32)C1	25%
CCSC1(SCC)N=C(N)C2(C#N)C(c3ccccc3)NC(C)=C(C)C12C#N (stereo not drawn)	-14%
Nc1nc(-c2cc(-c3cccc4ccccc34)nc(N)n2)cc(-c2cccc3ccccc23)n1	2%[5.75 µM]
COC(=O)c1sc(NC(=O)CSc2nnnn2-c2ccc(C)cc2C)nc1C	-7%
O=C1Nc2ccccc2C12Nc1ccccc1-c1nc3ccccc3n12 (stereo not drawn)	-20%
O=c1cc(N2CCOCC2)[nH]c(=O)n1-c1ccc(Br)cc1	8%
O=C(O)CCC(=O)N1CCC(C(=O)c2cccc(Cl)c2)CC1	-6%
CC(=O)OCc1cc2cccc(C)c2[nH]c1=O	0%
O=C(CCCCn1c(=O)[nH]c2ccccc2c1=O)NCCc1c[nH]c2ccccc12	26%
O=C(C(Cc1ccccc1)NS(=O)(=O)c1cccc2nsnc12)N1CCC2(CC1)OCCO2 (stereo not drawn)	26%
O=C(Cn1nc(C(=O)O)c2ccccc2c1=O)NCCC1=CCCCC1	-4%
Cc1c(C(=O)OC2CCCCC2)sc2nc[nH]c(=O)c12	34%
CC1(c2ccccc2)NC(=O)N(CCOc2ccccc2)C1=O (stereo not drawn)	4%
Cc1cccc(-c2nnc(SCc3cc(=O)[nH]c4ccccc34)n2C)c1	14%
Cn1c(=O)c2c(nc(N3CCCCCC3)n2CC(O)COc2ccc(Cl)cc2)n(C)c1=O (stereo not drawn)	120%
COc1ccc(CNc2ncncc2-c2ccoc2)c(OC)c1	50%
CCOC(=O)c1[nH]c(C)c(C(=O)NCCCOC(C)C)c1C	6%
O=C(c1noc2c1CCc1ccccc1-2)N1CCCc2ccccc21	4%
Cc1cc(COc2ccccc2OCc2cc(C)no2)on1	12%
CCSc1ccccc1C(=O)n1nnc2ccccc21	-12%
CCCC(C)(COC(N)=O)COC(N)=O	3%
CCOC(=O)N1CCN(c2ccc(C(=O)c3ccccc3)cc2F)CC1	90%
CN1[C@@H]2CC[C@H]1CC(NC(=O)c1nn(C)c3ccccc13)C2 (stereo partly drawn)	-6%
CCOc1ccc(CNc2ccc3c(c2)nc(C)n3C)cc1	12%
CCSc1nc2ccccc2n1CC(=O)N1CCOCC1	1%
C/C(=C\c1cc(C(=O)O)c(C)o1)CO	-5%
O=C(NCCCN1CCOCC1)c1ccc(CS(=O)(=O)Cc2ccc(Cl)cc2)o1	16%

Seven entries from above in a different format:
SMILES,AmpC nodet inh
CNC(=O)c1nnn(Cc2ccccc2)c1NC(=O)C(F)(F)F,-6%
O=C(CCCCn1c(=O)[nH]c2ccccc2c1=O)NCCc1c[nH]c2ccccc12,26%
COc1cc(/C=N/n2cnnc2)ccc1OCCOc1ccccc1,66%
O=C(NCc1ccccc1)c1ccc(COCC(F)(F)F)o1,5%
CN1[C@@H]2CC[C@H]1CC(NC(=O)c1nn(C)c3ccccc13)C2 (stereo partly drawn),-6%
CCCC(C)(COC(N)=O)COC(N)=O,3%
O=C(NCCc1ccc(Cl)cc1)C1CCN(S(=O)(=O)N2CCC3(CC2)OCCO3)CC1,32%

6 compounds from above, ordered by molar mass, lowest first:
SMILES	AmpC nodet inh
C/C(=C\c1cc(C(=O)O)c(C)o1)CO	-5%
CCSc1ccccc1C(=O)n1nnc2ccccc21	-12%
CN1[C@@H]2CC[C@H]1CC(NC(=O)c1nn(C)c3ccccc13)C2 (stereo partly drawn)	-6%
CCSc1nc2ccccc2n1CC(=O)N1CCOCC1	1%
CCOC(=O)c1[nH]c(C)c(C(=O)NCCCOC(C)C)c1C	6%
Cc1cccc(-c2nnc(SCc3cc(=O)[nH]c4ccccc34)n2C)c1	14%

Other records
SMILES	AmpC nodet inh
CC1=CCC2C(=O)N(c3cccc(C(=O)N(C)C4CCCCC4)c3)C(=O)C2C1 (stereo not drawn)	104%
CC(C)CC(OC(=O)c1cccs1)C(=O)NCC1CCCO1 (stereo not drawn)	12%
COc1c(Cl)ccc(Cl)c1C(=O)OCC(=O)O	2%
CCCCC(CC)C(=O)NCc1ccccc1OC (stereo not drawn)	1%
CCOC(=O)c1oc2ccc(Br)cc2c1NC(=O)CN1CCN(C)CC1	86%
O=C(CCn1c(=O)sc2ccccc21)NCc1ccc2c(c1)OCO2	-3%
O=C1N=C(N2CCOCC2)SC1=C1CCCCC1	2%
Cc1ccc(C2(C)NC(=O)N(Cc3c(C)noc3C)C2=O)cc1 (stereo not drawn)	6%
Cn1c(=O)c(-c2ccc(F)cc2)nc2cncnc21	-2%
